D2 potentiator – positive allosteric modulators of human D2 dopamine receptor. AID 624464. P14416. potentiation, % (no concentration beside the values). 360,000 tested, 0.23% active. DiscoveRx D2 beta-arrestin cells, luminescence, 90 min; 100% = 57 uM dopamine signal; active = potentiation of 50% or more; inconclusive = 30% to 50%; inactive = 30% or less;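 also: compound concentration not given in the record; tested on top of an EC20 dose of dopamine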
Target sequence (P14416 whole entry, looked up): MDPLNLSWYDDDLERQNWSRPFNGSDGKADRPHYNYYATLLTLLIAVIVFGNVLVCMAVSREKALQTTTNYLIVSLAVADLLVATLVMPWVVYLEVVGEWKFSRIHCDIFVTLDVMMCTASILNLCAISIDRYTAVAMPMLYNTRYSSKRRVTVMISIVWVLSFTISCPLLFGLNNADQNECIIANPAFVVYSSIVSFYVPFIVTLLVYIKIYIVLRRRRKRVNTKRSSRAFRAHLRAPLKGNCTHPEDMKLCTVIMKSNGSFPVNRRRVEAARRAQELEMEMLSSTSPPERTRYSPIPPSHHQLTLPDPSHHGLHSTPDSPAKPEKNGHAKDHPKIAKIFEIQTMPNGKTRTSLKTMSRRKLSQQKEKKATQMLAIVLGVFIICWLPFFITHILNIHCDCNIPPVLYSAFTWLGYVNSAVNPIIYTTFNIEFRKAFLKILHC
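PathHunter beta-arrestin assay in DiscoveRx D2 cells. Compounds were added with an EC20 of dopamine (50 nM final) for 90 min at 37 deg C. Luminescence was read 1 h after detection reagent, with 57 uM dopamine as the EC100 control.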
CtBP-E1A inh – blocks the CtBP interaction with E1A; AlphaScreen GST-E1A/His-CtBP binding, 1536-well; hits give low values; control for the full effect not named in the record; activity change, % (concentration not given with the values); 340,000 tested, 0.49% active; AID 651724; in the data active means activity change below about -65%; inconclusive means about -30% to -65%; inactive means above about -30%; also: % is scaled to controls: 0 for no effect and ±100 for the full control effect
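Steps: dispense buffer (Tris pH 8.0, NaCl 300 mM, TCEP 1 mM, BSA, Tween 20); add 5X protein mix (GST-E1A, His-CtBP, 125 nM each); pin 23 nL compound; 2 h at 37 °C, dark; add 5X beads (50 ug/mL); 1 h; read.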
Six1-Eya2 blk – blocks human Six1 binding to Eya2 | Q15475+O00167 | AlphaScreen GST-Six1/His-Eya2 binding, biochemical; hits give low values; control for the full effect not named in the record | activity change, % (no concentration beside the values) | 360,000 tested, 0.56% active | AID 651725; in the data active = activity change below about -65%; inconclusive = about -30% to -65%; inactive = above about -30%; also: % is scaled to controls: 0 for no effect and ±100 for the full control effect; compound concentration not given in the record
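GST-Six1 + His-Eya2 (5X stock: 250/500 nM); Tris pH 8.0, 300 mM NaCl, 0.05% BSA, 0.02% Tween 20; GSH donor/Ni acceptor beads; 1 h 37 °C dark; AlphaScreen readout.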
PINK1 expr mod – modulators of PINK1 expression | PINK1 immunofluorescence, high-content cytometry, 24 h | Potency, µM (highest dose often 76.6 µM), inactives show at the top dose activation (PINK1 increase), most hits filed as activators | 410,000 tested, 0.2% active | AID 624263; active = well fitted activation curve with a large enough effect; inconclusive = small, poorly fitted or top-dose-only effect; inactive = flat fitted curve, though single readings scatter; cell line not stated here;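 also: potency is read from the fitted curve at half-maximal effect; % of control where 0% means no effect; nearly all actives have a fitted effect of over 65% in size; a mitochondrial uncoupler was the plate control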
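PINK1 protein, normally rapidly degraded, was detected by immunofluorescence after 24 hour compound treatment of a stable cell line. Titration data (5 concentrations) came from laser-scanning cytometry, with CCCP-treated wells as controls.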
D2 ag – agonists of human D2 dopamine receptor (beta-arrestin). P14416. activation, % (no concentration beside the values). DiscoveRx PathHunter D2 beta-arrestin, luminescence, 90 min; 100% = 57 uM dopamine signal. 360,000 tested, 0.084% active; in the data active = activation above about 40%; inconclusive = about 15% to 40%; inactive = below about 15%; also: compound concentration not given in the record; the text of the record calls up to 30% inactive
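Agonist mode: compounds alone added to overnight-plated D2 PathHunter cells for 90 min at 37 C, with 57 uM final dopamine (EC100) defining full response. Beta-arrestin recruitment detected by chemiluminescent reagent, read after 1 h at ambient temperature.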
TRPML1 agonist – agonists of human TRPML1 channel | TRPML1-expressing cells, Ca2+ dye fluorescence, FDSS; host cell line not named in the record; reference of the full effect not given here | AID 624414 | 410,000 tested, 0.12% active | Q9GZU1 | activation, % (test concentration not listed); in the data active = activation above about 50%; inconclusive = about 30% to 50%; inactive = below about 30%; also: 0% is about no effect; the text of the record puts the active cut at 80%
Target sequence (Q9GZU1 whole entry, looked up): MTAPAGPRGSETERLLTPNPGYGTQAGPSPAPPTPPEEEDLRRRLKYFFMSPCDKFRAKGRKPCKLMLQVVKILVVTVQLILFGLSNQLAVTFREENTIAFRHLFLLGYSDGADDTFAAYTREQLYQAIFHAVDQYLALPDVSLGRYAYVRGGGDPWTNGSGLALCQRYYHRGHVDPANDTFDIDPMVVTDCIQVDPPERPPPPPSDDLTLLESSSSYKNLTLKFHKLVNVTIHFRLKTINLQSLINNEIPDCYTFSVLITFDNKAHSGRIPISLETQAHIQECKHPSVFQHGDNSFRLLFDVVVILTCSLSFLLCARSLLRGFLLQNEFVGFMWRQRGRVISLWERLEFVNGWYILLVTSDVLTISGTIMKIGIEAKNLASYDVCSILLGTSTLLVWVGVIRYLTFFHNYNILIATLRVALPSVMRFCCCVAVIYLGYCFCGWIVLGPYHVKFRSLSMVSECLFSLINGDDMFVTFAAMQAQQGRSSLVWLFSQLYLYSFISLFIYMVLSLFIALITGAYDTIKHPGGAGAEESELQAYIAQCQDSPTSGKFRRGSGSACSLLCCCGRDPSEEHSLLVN
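Tetracycline-induced TRPML1-DL cells are seeded and incubated overnight before loading with a no-wash Ca2+ dye and quencher. Agonist activity is taken from the 110 s fluorescence read following compound pin-transfer on an FDSS, before EC80 54-4 challenge.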
The depositor's hits bear a star; ? = inconclusive; . = not tested or not shown; & = joins results of further samples; [ ] = remark or other dose.

SMILES	D2 potentiator	CtBP-E1A inh	Six1-Eya2 blk	PINK1 expr mod	D2 ag	TRPML1 agonist
COc1ccccc1CCn1c(N)cc(=O)[nH]c1=O	-7	-23	-26	-3.1%	3.9	2.0
COC(CC(=O)NNC(=S)Nc1ccc(Cl)cc1)OC	-11	-2	-5	1.3%	-0.5	-0.1
COc1ccc(CNC(=O)CN(Cc2ccc(C)cc2)C(=O)c2csnn2)cc1	-14	0	-13	5.6%	-6.3	-1.4
CCOC(=O)c1c(C)n(CC)c2c1cc(O)c1ccccc12	13	-1	7	0.7%	2.4	-1.2
Cc1ccc(C(=O)OCC(=O)Nc2cc(F)ccc2F)cc1NC(=O)c1ccco1	-3	7	-3	7.7%	-4.3	-1.0
COc1ccc(C2N=C(N)N=C(N)N2c2ccc(C)cc2)cc1 (stereo unspecified)	7	2	1	.	-3.1	0.3
CC(C)(C)OC(=O)N1CCc2onc(-c3ccc([N+](=O)[O-])cc3)c2C1=O	-2	0	6	-1.1%	-0.7	2.0
Fc1ccc(CN2C3=NCCN3c3ccccc32)cc1	-7	11	24	-1.2%	-20	1.3
Cc1ccc2cc(CN(CCc3ccccc3)C(=S)NCCCN(C)C)c(=O)[nH]c2c1	-10	-24	-6	-1.4%	-8.1	2.6
COc1ccccc1N1CCN(C(=O)CNC(=O)Cn2cnc3sc(C)c(C)c3c2=O)CC1	-29	-24	-17	0.5%	2.6	-0.1
COc1ccc(CCN2C(=O)CC(C(N)=O)SC2=Nc2ccc(F)cc2)cc1OC (stereo unspecified)	2	-3	-6	-1.0%	-1.2	-0.2
COC(=O)c1sccc1NC(=O)Nc1cccc([N+](=O)[O-])c1	4	-1	-3	0.2%	-4.2	-0.5
NS(=O)(=O)c1ccc(NC(=O)CN2CCCN(S(=O)(=O)c3ccc(F)cc3)CC2)cc1	1	12	22	0.7%	1.8	-0.2
O=C(COc1ccc(Cl)cc1Cl)Nc1ccc(C(=O)Nc2ccccc2C(=O)O)cc1	-10	-19	-24	0.3%	-2.2	0.3
CCN(C(=O)c1ccc(S(=O)(=O)N2CCCCC2)cc1)C1CCS(=O)(=O)C1 (stereo unspecified)	-5	-8	4	-2.6%	-2.9	-0.3
O=C(NCc1ccccc1)c1ccc2c(c1)C(=O)N(Cc1cccnc1)C2=O	-8	-8	-6	-0.4%	-2.5	2.7
CCOC(=O)C1=C(C)Nc2nnnn2C1c1cccc(OC)c1OC (stereo unspecified)	-3	-1	4	-1.6%	-0.2	1.1
Cc1ccc(-c2cc(C(F)F)nc(NCC3CCCO3)n2)cc1 (stereo unspecified)	-13	28	28	4.2%	-7.3	2.6
CCC1(C)OC(=O)N(CCCn2ccnc2C)C1(C)O (stereo unspecified)	1	9	5	0.1%	-1.7	0.8
CCCCn1c(N)c(N(CCC(C)C)C(=O)c2cc(Cl)nc3ccccc23)c(=O)[nH]c1=O	-2	-4	9	1.1%	-0.7	0.3
Cc1c(C(=O)N/N=C/c2cccnc2)sc(=S)n1C	-25	8	-12	2.1%	-0.5	0.2
COc1ccc(-c2oc3ccc(-c4ccc(OC)nc4)cc3c2-c2ccc(OC)cc2)cc1	-6	.	0	2.2%	-0.1	-0.4
Cc1ccc(C(=O)N/C(=C/c2cccs2)C(=O)NCc2ccco2)cc1	-9	8	10	1.0%	-6.5	0.6
O=C(Nc1cccc(NC(=O)c2ccccc2F)c1)c1ccccc1	-10	2	-2	-0.3%&0.5%	-4.4	-0.9&-1.2
Cc1nnc2ccc(Oc3ccc(-c4ccccc4)cc3)nn12	3	-10	-4	-1.1%[38.3 µM]	-3.7	1.3

Part of the list above, with two lines to a compound.
Value order: D2 potentiator | CtBP-E1A inh | Six1-Eya2 blk | PINK1 expr mod | D2 ag | TRPML1 agonist
> NS(=O)(=O)c1ccc(NC(=O)CN2CCCN(S(=O)(=O)c3ccc(F)cc3)CC2)cc1
→ 1 | 12 | 22 | 0.7% | 1.8 | -0.2
> O=C(COc1ccc(Cl)cc1Cl)Nc1ccc(C(=O)Nc2ccccc2C(=O)O)cc1
→ -10 | -19 | -24 | 0.3% | -2.2 | 0.3
> CCN(C(=O)c1ccc(S(=O)(=O)N2CCCCC2)cc1)C1CCS(=O)(=O)C1 (stereo unspecified)
→ -5 | -8 | 4 | -2.6% | -2.9 | -0.3

The list continues.
SMILES	D2 potentiator	CtBP-E1A inh	Six1-Eya2 blk	PINK1 expr mod	D2 ag	TRPML1 agonist
Cc1ccc(C(=O)NCc2ccc3c(c2)OCO3)c(C)c1	-15	4	-7	1.1%	2.9	-0.6
CCOC(=O)COc1cc(O)c2c(=O)cc(-c3ccccc3)oc2c1	-1	.	-12	3.2%	0.6	1.3
CCN(CC)S(=O)(=O)c1ccc(N2CCOCC2)c(NC(=O)c2ccc3c(c2)OCCO3)c1	7	2	-7	-1.7%	-2.6	-0.1
O=C(NCC(=O)N(c1cccnc1)C(C(=O)NC1CCCCC1)c1ccccc1F)c1ccco1 (stereo unspecified)	-3	-5	15	-1.4%	-4.4	-0.7
C=CCSC1=C(C#N)C(c2ccccc2Cl)C(C(=O)c2cccs2)C(O)(C(F)(F)F)N1 (stereo unspecified)	-5	2	-13	?	-1.2	0.3
COc1ccc(N2CCN(C(CNC(=O)c3cccs3)c3ccco3)CC2)cc1 (stereo unspecified)	-18	-5	-11	-1.1%	-3.8	0.7
CC1CC(NC(=O)c2c(O)nc3ccccn3c2=O)CC(C)(C)C1 (stereo unspecified)	13	-3	11	0.7%	-3.7	-0.7
COc1ccc(C2OC(=O)CC2C(=O)N2CCN(c3cc(Cl)ccc3C)CC2)cc1OC (stereo unspecified)	-4	-1	2	6.3%	-4.8	0.0
CCc1ccc(-c2cc(C)no2)cc1S(=O)(=O)NCCN1CCC(C)CC1	-38	2	0	-1.0%	-4.2	-1.0
CCCNC(=O)CCn1cc(-c2ccc(OC)cc2)nc1CCN	-6	-14	-7	-0.8%	-5.8	-0.2
CCOc1ccc(C(C)=O)cc1N1C(=O)C2C(C1=O)C1C=CC2C12CC2 (stereo unspecified)	-20	10	-1	.	0.0	0.1
CC(=O)c1cccc(NC(=O)c2ccccc2-c2ccccc2C(=O)O)c1	-11	.	-13	-1.0%	-0.2	-0.7
O=C(O)CCCNCc1ccccc1F	0	19	17	2.0%	2.1	0.5
CC(C)CCN1CCN(Cc2cccc3cccnc23)CC1CCO (stereo unspecified)	-35	26	0	-1.6%	0.1	0.4
CC(=O)N1CCc2cc(S(=O)(=O)NCCC(=O)NC3CCN(Cc4ccccc4)CC3)ccc21	-25	6	0	-0.9%	-3.7	-0.3
COc1ccc(CNC(=S)Nc2ccc(S(N)(=O)=O)cc2)cc1	-5	6	3	0.5%	0.8	0.3
Cc1ccc(NC(=O)C(C)SCC(=O)Nc2ccc(F)cc2)cc1S(=O)(=O)N1CCOCC1 (stereo unspecified)	-30	-5	19	-1.7%	-6.2	1.4
CC(C)C(c1nnnn1C1CCCC1)N1CCc2ccccc21 (stereo unspecified)	-3	-6	-17	-0.1%	-3.3	0.0
COc1cc(/C=c2/sc3nc(-c4ccccc4)c(-c4ccccc4)n3c2=O)cc(OC)c1OC	-10	0	-2	4.7%	-2.3	-0.3
CCOC(=O)c1cc(-c2csc(Nc3ccccc3Cl)n2)on1	-9	7	24	1.3%	-2.9	1.4
CS(=O)(=O)N(CC(N)=O)Cc1ccc(Cl)cc1	-3	16	7	-0.9%[38.3 µM]	-1.6	0.1
Cc1noc(C)c1S(=O)(=O)Nc1ccc2c(c1)C(=O)N([C@H](C)CO)C[C@H](C)[C@@H](CN(C)C(=O)Nc1ccccc1)O2	0	-1	-2	0.6%	0.1	-0.3
CCOc1ccccc1N(C(=O)c1ccco1)C(C(=O)NC1CCCC1)c1cccnc1 (stereo unspecified)	-11	4	0	-1.9%	0.6	0.8
CCSc1nc(N2CCOCC2)c2ccccc2n1	3	3	-1	0.4%	-3.5	-0.4
COC(=O)C1=C(C(=O)OC)SC(=C2C(=S)C(C)(C)N(C(=O)CC(C)C)c3ccccc32)S1	-12	?	?	10%[38.3 µM]	-0.1	0.9

An excerpt from above, reduced to PINK1 expr mod, CtBP-E1A inh and TRPML1 agonist.
Structure	PINK1 expr mod	CtBP-E1A inh	TRPML1 agonist
COC(=O)C1=C(C(=O)OC)SC(=C2C(=S)C(C)(C)N(C(=O)CC(C)C)c3ccccc32)S1	10%[38.3 µM]	?	0.9
CCOC(=O)COc1cc(O)c2c(=O)cc(-c3ccccc3)oc2c1	3.2%	.	1.3
O=C(NCC(=O)N(c1cccnc1)C(C(=O)NC1CCCCC1)c1ccccc1F)c1ccco1 (stereo unspecified)	-1.4%	-5	-0.7
CC1CC(NC(=O)c2c(O)nc3ccccn3c2=O)CC(C)(C)C1 (stereo unspecified)	0.7%	-3	-0.7
COc1ccc(CNC(=S)Nc2ccc(S(N)(=O)=O)cc2)cc1	0.5%	6	0.3

Next part:
SMILES	D2 potentiator	CtBP-E1A inh	Six1-Eya2 blk	PINK1 expr mod	D2 ag	TRPML1 agonist
CC(C)(C)c1cc(CN(CCO)CCO)c(O)c(C(C)(C)C)c1	-10	0	8	4.7%	-0.4	0.2
CN(C(=O)CC(NC(=O)c1ccccc1)(c1ccccc1)c1ccccc1)c1ccccc1	-14	2	-10	16%	-5.8	1.2
Cc1ccc(NC(=O)c2cccc(S(=O)(=O)N3CCN(c4ccc(F)cc4)CC3)c2)nc1	-8	-5	-24	8.0%	2.9	-0.2
COc1ccccc1Cc1c(-c2ccc(OC)c(OC)c2)nc2ccc(Br)cn12	-11	2	-12	14µM*	-2.1	-0.2
O=C(Cn1nc(C(F)F)cc1C(F)F)NNC(=S)Nc1ccc(Cl)cc1	-6	1	-2	0.5%[38.3 µM]	-3.8	1.9
COc1ccc(-c2noc(CCC(=O)NCCc3cccc(C)c3)n2)cc1	-1	2	4	-0.4%	-0.3	7.7
O=c1cc(O)c2ccccc2n1Cc1ccccc1F	3	4	8	0.2%	-1.6	-0.3
O=C(NCC1CCCO1)c1nn2c(c1Cl)NC(c1ccc(F)cc1)CC2C(F)(F)F (stereo unspecified)	-12	2	-1	1.0%	-1.7	3.2
CC(C)Cc1nnc(NC(=O)CCC(=O)N2CCN(Cc3ccc(Cl)cc3)CC2)s1	-17	-8	5	1.3%	-8.1	-0.5
CCOc1c(N2CCCCC2)c(=O)c1=O	-24	2	-4	-2.1%	1.2	0.6
CCOC(=O)C1CCN(C(=O)c2sc3nc(-c4ccccc4)cn3c2C)CC1	-20	-20	-15	0.9%	-0.4	0.1
Cc1nc2ccccn2c1C(=O)Nc1ccc2c(c1)OCCO2	1	-15	-8	0.3%	-2.0	-0.2
COc1ccccc1OCCC(=O)Nc1nc(C)cs1	-12	.	0	-0.7%	-2.8	-0.8
CCOC(=O)N1CCC(NC(=O)c2cccn3c(=O)c4cc(Br)ccc4nc23)CC1	12	-19	-3	4.0%	-2.6	-0.5
CCOC(=O)C(C)Oc1c(Br)cc(C2NC(=O)NC(C)=C2C(C)=O)cc1OCC (stereo unspecified)	-14	2	3	?	-0.7	0.9
COc1ccc(C(=O)N2CCN(c3ccc(C)cc3C)CC2)cc1OC	-3	-11	-20	-0.2%	13	0.3

Bioassay records (PubChem BioAssay)
